Screens deposited in PubChem by National Center for Advancing Translational Sciences (NCATS).
Vaccinia mCherry = inhibitors of vaccinia virus infection (mCherry reporter signal); Potency, µM (series often up to 36.5 µM), for the others: at the highest dose activity change, negative = inhibition, actives largely listed as inhibitors; Vaccinia virus mCherry reporter infection, fluorescence; about a quarter of the inactives have no number; AID 720579; 310,000 compounds, 0.63% hits; active = well fitted inhibition curve with a large enough effect; inconclusive = small, poorly fitted or top-dose-only effect; inactive = no such curve, though single readings can be large or run the other way; tested in A549 cells; also: nearly all actives have a fitted effect of over 35% in size; inactives centre near -10
VACV Venus inh = vaccinia inhibition (Venus reporter); 330,000 compounds, 0.46% hits; Potency, µM (series often up to 36.5 µM), for the others: at the top dose activity change, negative = inhibition, usual class: inhibitors; Vaccinia virus Venus reporter expression, fluorescence; active means well fitted inhibition curve with a large enough effect; inconclusive means small, poorly fitted or top-dose-only effect; inactive means no such curve, though single readings can be large or run the other way; tested in A549 cells; also: nearly all actives have a fitted effect of over 30% in size; inactives centre near -10
Starred values were filed as active, the others as inactive; i = inactive; u = inconclusive; x = not tested or not shown; & = joins results of further samples; [ ] = dose if it differs, or a comment. % is scaled to controls: 0 for no effect and ±100 for the full control effect; potency is read from the fitted curve at half-maximal effect.

SMILES | Vaccinia mCherry | VACV Venus inh
Cc1ccc(S(=O)(=O)N2CCN(C(=O)c3cc(=O)c4ccccc4o3)CC2)cc1 | -25% | -6%
Cc1cc(N(C(=O)c2ccco2)C(C(=O)NC2CCCCC2)c2ccccc2)ccc1-n1cnnn1 (stereo not given) | -18% | -10%
COc1ccc2c(c1)CCc1sc(NC(=O)c3ccc(Cl)cc3)nc1-2 | -15% | -17%
CC(C)CNc1nc(NC(C)(C)C)nc(Oc2ccc(=O)n(-c3ccccc3)n2)n1 | -8% | -10%
CCN(/N=C/c1ccccc1)c1cc(=O)n(C)c(=O)[nH]1 | -4% | -16%
CC(=O)CCC(=O)CNC(=O)CC[C@H]1O[C@@H](n2ccc(=O)[nH]c2=O)[C@H](O)[C@@H]1O | 10% | -4%
O=C1CN(C(=O)N[C@@H](Cc2ccccc2)C(=O)N[C@H](C(=O)O)c2ccccc2)c2ccccc2N1 | -10% | -4%
c1ccc(-c2[nH]ncc2CN2CCc3ccccc3C2)cc1 | -2% | 1%
CCc1ccccc1NC(=O)CSc1nnc([C@H](CCSC)NC(=O)OC(C)(C)C)o1 | x | -13%
COC(C(=O)NC1CC1)c1ccccc1 (stereo not given) | -13% | -2%
COc1ccc(CCn2c(N)cc(=O)[nH]c2=O)cc1OC | i | 0%
CCCOc1ccc(C2=CC(=O)C[C@H](c3ccc(OC)cc3)C2)cc1 | -10% | -6%
CCc1ccc(CNC(=O)c2ccc(-n3c(C)cc4c3CCC(C)C4)cc2)cc1 (stereo not given) | -19% | -10%
CCCCN(CC)CCOc1cccc2ccccc12 | u | u
COc1ccc([C@@H]2[C@@H]3C(=O)N(C(C)(C)C)C(=O)[C@@H]3[C@]3(Cc4ccc(Cl)cc4)C(=O)N(c4cccc(Br)c4)C(=O)N23)cc1 | i | -12%
COc1ccc(NC(=O)COC(=O)c2ccc(S(=O)(=O)N3CCCCCC3)cc2)c(OC)c1 | i | -11%
O=C(CSc1nnc2c(n1)[nH]c1ccccc12)NCc1ccco1 | 0% | -4%
Cc1ccc(CN2CCN(CC(=O)NCc3ccccc3)CC2)cc1 | u | -16%
CC(=O)Nc1ccc(NS(=O)(=O)c2cc(Cl)sc2Cl)cc1 | -3% | -12%
Cc1cccc(Nc2sc(C(=O)c3cc4cc(Cl)ccc4o3)c(N)c2C#N)c1 | -6% | -7%

Pulled by compound from the entries so far, 2 records:
SMILES | Vaccinia mCherry | VACV Venus inh
CCCCN(CC)CCOc1cccc2ccccc12 | u | u
CCc1ccccc1NC(=O)CSc1nnc([C@H](CCSC)NC(=O)OC(C)(C)C)o1 | x | -13%

Next entries.
SMILES | Vaccinia mCherry | VACV Venus inh
CCCn1cnc2c(sc3nc4c(cc32)CSC(C)(C)C4)c1=O | -13% | 2%
Cc1cc(C)c2nc(N3CCC(C(=O)NCC4CCCO4)CC3)sc2c1 (stereo not given) | -5%[7.34 µM] | -1%[7.34 µM]
Cc1ccsc1/C=N/NC(=O)c1cccs1 | i | -14%
CC1(C)Oc2c(ccc(O)c2CN2CCOCC2)C2=C1CCCC2 | -16% | -18%
O=C(O)CC(c1ccccc1)n1cnnn1 (stereo not given) | -11% | -6%
CC(C)C1CCN(C(=O)C2CCC(=O)N(CCc3ccc(Cl)cc3)C2)CC1 (stereo not given) | -5% | -23%
O=C(Nc1cccc2ccccc12)c1ccc(Br)o1 | -14% | -6%
Cc1ccccc1-c1nc(CN2CCC(C(=O)NCc3ccc(F)cc3)CC2)c(C)o1 | -9% | -20%
O=C(O)c1ccccc1NC(=O)N1c2ccccc2Sc2ccccc21 | 1% | -2%
CCCCOc1ccc(C(=O)CCN2CCOCC2)cc1 | u | -19%
COC(=O)NNC(=O)C1CCC(C(=O)NNC(=O)OC)CC1 (stereo not given) | -15% | -11%
Cc1ccccc1N1CCN(S(=O)(=O)c2ccc3ccccc3c2)CC1 | i | -13%
CCOc1ccc(OCC)c(NC(=O)C2CCN(S(=O)(=O)c3c(C)[nH]c(=O)[nH]c3=O)CC2)c1 | 10% | 2%
O=C(O)CCCc1nc2ccccc2s1 | i | -12%
COc1ccc(NC(=O)CCN2C(=O)/C(=C/c3ccc4c(c3)OCO4)SC2=S)cc1 | -21% | -7%
CCOc1ccc(CCNC(=O)c2cc3c(s2)-c2c(C)cccc2OC3)cc1 | -16% | 0%
CCc1cc(C(=O)N(CCCOC)c2c(N)n(Cc3ccccc3)c(=O)[nH]c2=O)sc1C | -20% | -4%
CC1=C(C(=O)OCC2CCCO2)C(c2coc3ccc(C)cc3c2=O)C2=C(CCCC2=O)N1 (stereo not given) | -12% | -3%
CCCNC(=O)C(Cc1cccc(C#N)c1)NC(=O)c1ccc(C#N)cc1 (stereo not given) | i | -10%
CC1(C(=O)NS(=O)(=O)c2ccccc2)CCN1C(=O)Cc1cc(F)ccc1F (stereo not given) | 32%[activator] | -3%
COc1ccc(CNC(=O)CN(C(=O)c2ccc(CN3CCOCC3)o2)C2CCCC2)cc1 | -18% | -3%
CCOc1ccc2c(c1)c(=O)c(S(=O)(=O)c1ccc(F)cc1)cn2CC(=O)Nc1ccccc1C | -2% | -8%
CCOCCCNC(=O)c1ccc(Cn2c(=O)c3cccn3c3cccnc32)cc1 | -28% | -14%
O=[N+]([O-])c1cc(CN(CCO)CCO)ccc1O | -8% | 5%
O=C(CN1C(=O)c2ccc([N+](=O)[O-])cc2C1=O)NC1CCS(=O)(=O)C1 (stereo not given) | -8% | 2%
CC(=O)N1CCc2cc(S(=O)(=O)NC(C(=O)Nc3nc(C)cs3)C(C)C)ccc21 (stereo not given) | -26% | -14%
CCOC(=O)c1c(S(=O)(=O)N2CCC(C(=O)N3CCN(c4ccccc4F)CC3)CC2)c(C)n(C)c1C | 0% | 5%
CCN(CC)c1ccc2cc(-c3nc4ccccc4n3C)c(=O)oc2c1 | u | u
COc1ccc(Cl)cc1Nc1nc2ccc(C)cc2n2cnnc12 | -8% | -1%
CCOC(=O)N1CCC(NS(=O)(=O)c2cc(C(=O)OC)n(C)c2)CC1 | i | -9%
COC(=O)CN(CCCl)P1(=O)OCCCN1CCCl (stereo not given) | 4% | -2%
CC(Oc1ccccc1)C(=O)Nc1ccccc1F (stereo not given) | i | -9%
COC1C(O)C(OC2CC[C@]3(C=O)C4C(OC(C)=O)C[C@@]5(C)C(C6=CC(=O)OC6)CC[C@]5(O)C4CC[C@]3(O)C2)OC(C)C1OC(C)=O (stereo not given in full) | -8% | -4%
COc1ccccc1NC(=O)Nc1nc(CC(=O)Nc2ccccc2F)cs1 | -28% | -15%
Fc1cc(F)cc(NC(=S)NN2CCOCC2)c1 | -13% | 8%
C/C(=N\NC(=O)Cc1cccn1C)c1cccc2ccccc12 | -9% | 0%
COc1ccc(C)cc1NCC(=O)Nc1ccc(C(C)(C)C)cc1 | -25% | -17%
COc1ccc(CC(=O)NC(C)CCc2ccccc2)cc1 (stereo not given) | 2% | -20%
Cc1ccc(NC(=O)CSCc2cc(=O)n3cc(C)sc3n2)cc1 | 6%[7.34 µM] | 0%[7.34 µM]
CN(CC(=O)Nc1ccccc1C(F)(F)F)C(=O)C1CCN(S(=O)(=O)c2ccc3c(c2)OCCO3)CC1 | i | -13%
O=C(NNc1cc(N2CCOCC2)nc(N2CCOCC2)n1)C12CC3CC(CC(C3)C1)C2 | -8% | -11%
COCc1[nH]nc2c1C(c1ccc(OC)c(OC)c1)C(C#N)=C(N)O2 (stereo not given) | -3% | -2%
CCOC(=O)C1=C(CS(=O)(=O)c2ccccc2)NC(=O)NC1c1cccc(OC)c1 (stereo not given) | -14% | -3%
Cc1cc(NC(=O)c2cc(-c3cccc(Cl)c3)on2)n(-c2ccccc2)n1 | u | u
CSc1cccc(NC(=S)N2CCC(N(C)C3CCCCCC3)CC2)c1 | u | -21%
CN(C)CCCNCC(=O)NN(c1ccccc1)c1ccccc1 | u | 4%
COCCN(C(=O)CNC(=O)c1ccco1)C(C(=O)NC1CCCC1)c1cccs1 (stereo not given) | -7% | -12%
CCOc1ccc(N(CC(=O)N2CCCC2)S(=O)(=O)c2ccc(F)cc2)cc1 | i | -13%
COC(=O)[C@@H](Cc1ccccc1)N(Cc1ccccc1)S(=O)(=O)N(Cc1ccccc1)[C@H](Cc1ccccc1)C(=O)OC | -10% | -7%&-20%
CCc1cc2c(cc3c(=O)n(CC(=O)NCc4cc(Br)ccc4OC)ncn32)s1 | u | u
O=C(/C=C/c1ccc2c(c1)OCO2)NCCS(=O)(=O)N1CCN(c2ccc(F)cc2)CC1 | u | -24%
Cn1c(=O)c2c(nc(OCc3ccccc3)n2C)n(C)c1=O | 20% | 0%
CCOc1ccc(CCNC(=O)C2CCCN(C(=O)N(C)C)C2)cc1OCC (stereo not given) | u | -6%
O=[N+]([O-])c1ccc(COn2nnc3ccccc32)cc1 | -9% | -5%
Cc1ccnc(NC(=O)c2ccc(NC(=O)c3ccco3)cc2)c1 | x | -16%
CC(=O)Oc1ccc(OC(C)=O)c(SCCCCCCl)c1 | -22% | -2%
O=C(CSc1nnc(-c2ccccc2)n1-c1ccc(Cl)cc1)NC1CCS(=O)(=O)C1 (stereo not given) | -3% | -21%
CN1CCN(C(=O)COCc2cc(-c3ccc4c(c3)OCO4)on2)CC1 | -16% | -6%
CN1CCN(c2oc(-c3ccccc3Cl)nc2S(=O)(=O)c2ccccc2)CC1 | i | -15%
Cc1ccnc2c(Cl)c(Cl)ccc12 | -7% | -25%

Already shown: 15 of the compounds above.
SMILES | Vaccinia mCherry | VACV Venus inh
CN(C)CCCNCC(=O)NN(c1ccccc1)c1ccccc1 | u | 4%
COCCN(C(=O)CNC(=O)c1ccco1)C(C(=O)NC1CCCC1)c1cccs1 (stereo not given) | -7% | -12%
CCOc1ccc(N(CC(=O)N2CCCC2)S(=O)(=O)c2ccc(F)cc2)cc1 | i | -13%
COC(=O)[C@@H](Cc1ccccc1)N(Cc1ccccc1)S(=O)(=O)N(Cc1ccccc1)[C@H](Cc1ccccc1)C(=O)OC | -10% | -7%&-20%
CCc1cc2c(cc3c(=O)n(CC(=O)NCc4cc(Br)ccc4OC)ncn32)s1 | u | u
O=C(/C=C/c1ccc2c(c1)OCO2)NCCS(=O)(=O)N1CCN(c2ccc(F)cc2)CC1 | u | -24%
Cn1c(=O)c2c(nc(OCc3ccccc3)n2C)n(C)c1=O | 20% | 0%
CCOc1ccc(CCNC(=O)C2CCCN(C(=O)N(C)C)C2)cc1OCC (stereo not given) | u | -6%
O=[N+]([O-])c1ccc(COn2nnc3ccccc32)cc1 | -9% | -5%
Cc1ccnc(NC(=O)c2ccc(NC(=O)c3ccco3)cc2)c1 | x | -16%
CC(=O)Oc1ccc(OC(C)=O)c(SCCCCCCl)c1 | -22% | -2%
O=C(CSc1nnc(-c2ccccc2)n1-c1ccc(Cl)cc1)NC1CCS(=O)(=O)C1 (stereo not given) | -3% | -21%
CN1CCN(C(=O)COCc2cc(-c3ccc4c(c3)OCO4)on2)CC1 | -16% | -6%
CN1CCN(c2oc(-c3ccccc3Cl)nc2S(=O)(=O)c2ccccc2)CC1 | i | -15%
Cc1ccnc2c(Cl)c(Cl)ccc12 | -7% | -25%

(continued)
SMILES | Vaccinia mCherry | VACV Venus inh
CCCNC(=O)N1CCCN(S(=O)(=O)c2ccc3c(ccn3CC)c2)CC1 | -3% | 4%
O=C(NCc1ccccc1)[C@@H]1C[C@H]1[C@@H](NP(=O)(c1ccccc1)c1ccccc1)c1ccccc1 | -5% | -29%
CNc1ccc(-c2nc(-c3ccccc3C)no2)cc1[N+](=O)[O-] | 0% | -7%
O=c1c2ccccc2c(-c2ccccc2)nn1-c1ccccn1 | i | -28%
O=C1CCC(=O)N1c1ccc(S(=O)(=O)Nc2ccc(Br)cc2)cc1 | i | -7%
CCCCS(=O)(=O)C(=C1Nc2ccccc2N1)S(=O)(=O)CCCC | x | -8%
CC(=O)N1c2ccc(S(=O)(=O)NCC3CCC(C(=O)NC(C)(C)C)CC3)cc2CC1C (stereo not given) | -1% | -5%
COc1cc(C2CC(=O)Oc3ccc(C(C)(C)C)cc32)cc(OC)c1OC (stereo not given) | i | -17%
CN1CCN(c2nc(-c3cccnc3)nc3scc(-c4ccccc4)c23)CC1 | -5% | -6%
Cn1c(=O)c2c(c3ccccc31)OC(=O)CC2c1ccccc1 (stereo not given) | -16% | -3%
Cc1ccccc1Cn1nnc2c(=O)[nH]c(C3CCCN(C(=O)c4ccc(F)cc4)C3)nc21 (stereo not given) | -9% | 0%
O=C(COC(=O)Cc1ccccc1)NC(=O)NC1CCCCC1 | i | -14%
Cn1c(CNC(=O)CSc2nc(-c3ccccc3F)nc3cc(=O)[nH]n23)nc2ccccc21 | 14% | 11%
OCCC1CN(Cc2nc(-c3ccccc3)cs2)CCN1Cc1ccc(F)cc1 (stereo not given) | -22% | -17%
Cc1ccc(C)c(N2CCN(C(=O)c3cc4ccc5cccnc5c4[nH]3)CC2)c1 | -28% | -22%
c1ccc2c(CSCCc3ccncc3)cccc2c1 | x | -17%
CC(=O)N1c2ccccc2CC1C(=O)N1CCN(c2ccc(F)cc2)CC1 (stereo not given) | -11% | -7%
CCOC(=O)C1CCC(CN(Cc2ccc(OC)cc2)S(=O)(=O)c2ccc(F)c(C(=O)Nc3cc(C)ccc3C)c2)CC1 (stereo not given) | -5% | 7%
O=C(NC(=S)Nc1ccccc1)c1cc([N+](=O)[O-])ccc1N1CCOCC1 | i | -5%
Cc1ccc(CNC(=O)CCCn2c(=O)[nH]c3ccc(Br)cc3c2=O)cc1 | -11% | -10%
CCOc1cc(NC(=S)NCCCN2CCOCC2)c(OCC)cc1NC(=O)C1CC1 | -2% | 2%
O=C(COc1ccc(Cl)cc1)NCc1n[nH]c(=O)c2ccccc12 | -7% | -2%
CCc1ccc(OCc2cc(=O)n3c4c(sc3n2)CCCC4)cc1 | -6% | -12%
